Screening data: PubChem, National Center for Advancing Translational Sciences (NCATS)
GLA inh pH 4.5: alpha-galactosidase A (human) inhibition, pH 4.5 | purified enzyme, 4-MU-alpha-Gal fluorescence, pH 4.5 | activity change, negative = inhibition, % at 105 µM | 230,000 tested, under 10 active | AID 1467; inconclusive = small, poorly fitted or top-dose-only inhibition, or a rising curve; inactive = flat fitted curve, though single readings scatter; no compound was filed as active;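 note: 0% = full activity with enzyme and -100% = basal without enzyme; dose as in the result columns while the protocol names 77 µM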
Rango complex inh: Rango-importin beta binding inhibition | Rango CFP/YFP FRET sensor + importin beta, 45 min | hit rate 0.031% among 340,000 | Q14974 | Potency, µM (highest dose often 92.2 µM), inactives show at the top dose inhibition of complex formation; active = rising FRET ratio curve, often small or poorly fitted; inconclusive = mostly compound fluorescence or quenching in the first reads; inactive = flat curves in all reads;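 note: potency is the fitted concentration of half-maximal effect; 0% = DMSO wells and 100% = buffer wells lacking importin beta; nearly all actives have a fitted effect of over 15% in size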
Target sequence (Q14974 whole entry, looked up): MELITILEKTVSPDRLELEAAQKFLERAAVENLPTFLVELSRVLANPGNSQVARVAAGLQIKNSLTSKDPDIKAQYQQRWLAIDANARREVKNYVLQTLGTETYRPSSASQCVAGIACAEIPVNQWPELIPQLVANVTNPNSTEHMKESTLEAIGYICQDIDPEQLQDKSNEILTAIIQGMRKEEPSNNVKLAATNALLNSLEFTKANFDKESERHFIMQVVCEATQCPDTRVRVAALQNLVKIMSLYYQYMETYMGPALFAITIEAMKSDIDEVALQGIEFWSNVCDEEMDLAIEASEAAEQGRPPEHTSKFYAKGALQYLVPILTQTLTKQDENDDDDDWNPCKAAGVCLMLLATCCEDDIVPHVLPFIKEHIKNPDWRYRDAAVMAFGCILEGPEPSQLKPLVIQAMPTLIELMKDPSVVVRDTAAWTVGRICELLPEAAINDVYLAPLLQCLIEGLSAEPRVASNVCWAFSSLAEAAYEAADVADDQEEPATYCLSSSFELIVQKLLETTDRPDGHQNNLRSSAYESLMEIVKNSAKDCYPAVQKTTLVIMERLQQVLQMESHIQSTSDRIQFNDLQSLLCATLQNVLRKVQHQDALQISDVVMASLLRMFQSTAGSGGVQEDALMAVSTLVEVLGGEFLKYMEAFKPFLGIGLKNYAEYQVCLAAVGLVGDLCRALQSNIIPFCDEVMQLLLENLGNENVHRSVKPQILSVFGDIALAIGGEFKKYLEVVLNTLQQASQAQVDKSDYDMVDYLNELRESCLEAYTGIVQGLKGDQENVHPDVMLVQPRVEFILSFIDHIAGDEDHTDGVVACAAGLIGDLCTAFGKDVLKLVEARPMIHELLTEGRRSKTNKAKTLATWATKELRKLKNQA
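Inhibition scored from the CFP 486 nm/YFP 530 nm FRET ratio 45 min after adding 0.125 microM importin beta to 50 nM Rango biosensor preincubated 5 min with compound (room temperature, PBS with DTT, Tween-20, BSA). No-importin wells as positive control.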
Rango release inh: prevents RanGTP from dissociating the Rango-importin beta complex. O95149+P62826. Biochemical FRET Rango-importin beta, RanGTP-induced dissociation. Potency, µM (titrated, usually from 46.1 µM), without a hit: at the highest dose activity change, negative = inhibition. hit rate 0.071% among 340,000. AID 540253; active means falling FRET ratio curve, often poorly fitted, with flat reads before Ran was added; inconclusive means other falling curves, or compound fluorescence or quenching; inactive means flat or rising ratio curve;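 note: potency is the fitted concentration of half-maximal effect; % of control where 0% means no effect; nearly all actives have a fitted effect of over 45% in size; -100% = wells without RanGTP and RCC1; the record marks most hits as doubtful in a second field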
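Compounds sat 5 min at room temperature with 0.1 uM Rango biosensor plus 0.25 uM importin beta, then FRET pre-read. RanGTP-RCC1 (0.6 uM Ran, 2mM GTP, 0.2 uM RCC1) added for 45 min, and the CFP/YFP post-read measured blocked complex dissociation.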
miR-21 reporter: raises the signal of a miR-21 reporter; HeLa miR-21 FLuc reporter, luciferase, 48 h; 340,000 tested, under 10 active; Potency, µM (titrated, usually from 38.3 µM), for inactives: at the highest dose reporter change, positive = more light; AID 2288; active = well fitted rising curve with a large enough effect; inconclusive = small, poorly fitted or top-dose-only effect; inactive = no such curve, though single readings can be large or run the other way;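 note: % of control where 0% means no effect; miR-21 action dims this reporter so a rising signal means less miR-21 action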
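Luminescence from a firefly luciferase reporter carrying a miR-21 binding site downstream, stably expressed under a CMV promoter in HeLa cells that make miR-21 endogenously, reports miRNA modulation after 48 h compound exposure up to approximately 40uM final.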
* marks the source's active call; other numbers are inactive results; u = inconclusive; x = not tested or not shown; & = joins results of further samples. A portion of the library; rates above refer to the full screens.

nr	mol	Rango release inh	miR-21 reporter	Rango complex inh	GLA inh pH 4.5
1	S=C(Nc1ccc(Br)cc1Cl)N1CCN(c2ccccn2)CC1	7%	-3%	-0.5%	x
2	Cc1cc2c(c(=O)n1Cc1ccc3c(c1)OCO3)C(c1cccnc1)C(C#N)=C(N)O2 (centres undefined)	-3%	-10%	-1.9%	6
3	CC(NC(=O)COC(=O)CCC(=O)c1ccc(Cl)cc1)c1ccccc1 (centres undefined)	12%	x	-0.9%	x
4	O=C(CSc1nc2ccccc2[nH]1)Nc1c(F)cccc1F	8%	-11%	-2.2%	8
5	Cc1cccn2c(=O)c3cc(C(=O)NCC4CCCO4)c(=N)n(CCc4ccccc4)c3nc12 (centres undefined)	u	0%	u	x
6	Cn1nnnc1SCC(=O)NCc1ccco1	7%	-4%	6.8%	0
7	CCOC(=O)Cn1c(=O)oc2cc(S(=O)(=O)N3CCn4c3nc3ccccc34)ccc21	-6%	-1%	-3.1%	0
8	CCC(C)NS(=O)(=O)c1ccc(OCC(=O)N2CCCCC2)cc1 (centres undefined)	15%	0%	-3.0%	9
9	CN1CCC(=C2c3ccccc3Sc3ccccc32)CC1	-17%	x	2.2%	-3&-1
10	O=S(=O)(Cc1ccccc1)NCC1CCCN(Cc2ccc3nonc3c2)C1 (centres undefined)	12%	0%	-1.8%	4
11	O=C(Cc1ccccc1)NCc1ccccn1	0%	5%	-0.3%	4
12	O=C1OCCC1Sc1nnc(-c2ccco2)o1 (centres undefined)	0%	-5%	-0.7%	2
13	Cc1nc2ccc([N+](=O)[O-])cc2s1	-4%	-1%	0.5%	5
14	CN(C)CCNC(=O)C1CCCNC1=O (centres undefined)	-1%	1%	-2.7%	-8
15	CC(=O)c1ccc(N(CC(=O)NC2CCS(=O)(=O)C2)S(=O)(=O)c2ccc(Cl)cc2)cc1 (centres undefined)	-2%	x	2.2%	x
16	Cc1cccc(C(=O)NC(=S)N2CCc3ccccc3C2)c1	-2%	-20%	-2.5%	-11
17	O=C1/C(=C/c2cccc([N+](=O)[O-])c2)CCc2ccccc21	2%	17%	-0.1%	-2
18	CC(C)CNS(=O)(=O)c1ccc(S(=O)(=O)N2CCN(CCC#N)CC2)cc1	3%	-2%	-0.6%	3
19	N#CC1=C(N)Oc2n[nH]c(-c3cccnc3)c2C1c1ccc([N+](=O)[O-])o1 (centres undefined)	0%	u	-2.5%	4
20	CCC(CC)C(=O)Nc1cccc(-c2ccc3nncn3n2)c1	-8%	0%	1.5%	x
21	COC(=O)C1CCN(C(=O)Cc2c(OC)ccc3cc(Br)ccc23)CC1	0%	0%	-0.3%	4
22	CCOc1cc(/C=C2\NC(=O)NC2=O)ccc1OC(C)C(=O)O (centres undefined)	-5%	-3%	-4.8%	x
23	COC(=O)c1cc(-c2ccc(Br)cc2)on1	-14%	1%	1.0%	-4
24	COc1ccccc1NC(=O)Nc1nnc(CC(=O)Nc2ccccc2C)s1	-5%	1%	0.0%	6
25	Cc1ccc2cc(NC(=O)c3cccc(F)c3)ccc2n1	19%	-54%	-1.2%	1
26	CCN(CC)C(=O)CSc1nnc(SCc2ccc(Cl)cc2)s1	5%	-20%	-1.3%	13
27	O=C(CCC(=O)c1cccs1)OCC(=O)N1CCN(C(=O)c2ccco2)CC1	0%	-6%	0.0%	2
28	CS(=O)(=O)NN1C(=O)c2ccccc2NC1c1c[nH]c2ccccc12 (centres undefined)	-7%	0%	6.5%	8
29	O=C(Oc1ccc(OC(=O)c2ccco2)c(S(=O)(=O)c2ccc(Br)cc2)c1)c1ccco1	5%	0%	-3.5%	-10
30	O=C(CSc1ncccn1)Nc1ccc2[nH]c(=O)[nH]c2c1	0%	x	2.4%	x

Retrieved one by one from above:
nr	mol	Rango release inh	miR-21 reporter	Rango complex inh	GLA inh pH 4.5
18	CC(C)CNS(=O)(=O)c1ccc(S(=O)(=O)N2CCN(CCC#N)CC2)cc1	3%	-2%	-0.6%	3
21	COC(=O)C1CCN(C(=O)Cc2c(OC)ccc3cc(Br)ccc23)CC1	0%	0%	-0.3%	4
17	O=C1/C(=C/c2cccc([N+](=O)[O-])c2)CCc2ccccc21	2%	17%	-0.1%	-2

(more compounds)
nr	mol	Rango release inh	miR-21 reporter	Rango complex inh	GLA inh pH 4.5
31	CCOc1ccc(C=NCC(O)c2ccccc2)cc1 (centres undefined)	-4%	-2%	3.9%	x
32	CCn1c(CC(=O)Nc2ccccc2F)nnc1SCC(=O)N1CCN(c2ccccc2)CC1	-18%	-4%	-0.8%	2
33	CO/N=C/C1CCN(c2ncc(C(F)(F)F)cc2Cl)C1=O (centres undefined)	5%	3%	-0.7%	-2
34	O=C(c1cccc(N2C(=O)C3CC=CCC3C2=O)c1)N1CCN(c2ccccc2)CC1 (centres undefined)	-11%	-1%	-0.3%	4
35	O=Cc1c(NCCCN2CCCC2=O)c2ccccc2[nH]c1=O	-2%	-1%	-0.5%	x
36	O=C(N/N=C/c1cn(-c2ccccc2)nc1-c1cccs1)c1ccncc1	u	0%	u	7
37	C#CCOCCOCCOCCNc1nc(N2CCN(C(=O)CCCCCCCCCCNC(=O)[C@H](CCCCN)n3cc(CCCC(=O)O)nn3)CC2)nc(N2CCN(C(=O)CCCCCCCCCCNC(=O)[C@@H]([C@H](C)O)n3cc(C)nn3)CC2)n1	-9%	x	-2.9%	x
38	CC(C)(OC(=O)c1ccc(F)cc1)c1cc2ccccc2c(=O)o1	1%	x	-2.4%	x
39	COc1ccc(C(C)=O)c(OC(=O)c2ccc(OC)c(OC)c2)c1	-11%	-2%	4.0%	4
40	Cc1nnc2sc(-c3ccc(NC(=O)c4ccc(-c5ccc(Cl)cc5Cl)o4)cc3)nn12	-12%	x	u	x
41	Cc1nc(C)c(C(=O)NCc2ccccc2Cl)o1	6%	7%	1.6%	6
42	CN(C)C(=O)c1c([N+](=O)[O-])c(C(C)(C)C)nn1C	-17%	-1%	0.3%	0
43	O=C(NCCCn1ccnc1)c1cc(Br)c(Br)s1	16%	0%	3.7%	x
44	Brc1ccc(NC2=Nc3ccccc3CC2)cc1	0%	-34%	0.7%	4
45	COc1cc(/C=N/Nc2nc(C)cc(=O)[nH]2)ccc1OC(=O)c1cccnc1	0%	-1%	0.1%	-3
46	CC1(c2ccc(Cl)cc2)NC(=O)CS1 (centres undefined)	1%	-1%	2.3%	-2
47	Cn1c(=O)c2cn(-c3ccc4c(c3)OCCO4)cc2n(C)c1=O	u	-35%	-0.3%	4
48	CCc1cc(=O)oc2c3c(cc(OCC(=O)NCCCC(=O)O)c12)OC(C)(C)CC3	29%	-2%	0.0%	x
49	Cc1noc(C)c1NC(=O)Nc1ccc2c(c1)C(=O)N([C@H](C)CO)C[C@H](C)[C@@H](CN(C)C(=O)Nc1ccc3c(c1)OCO3)O2	4%	x	1.8%	x
50	Cc1ccc(CCNC(=O)C2CCC(=O)N2Cc2ccc(F)cc2)cc1 (centres undefined)	-8%	0%	-0.1%	x
51	O=C(CCl)N(Cc1cc(=O)[nH]c2ccccc12)c1ccccc1	7%	u	-0.5%	x
52	C1CN(CCN2CCOCC2)CCN1	-13%	0%	0.0%	x
53	O=S(=O)(Nc1cc(S(=O)(=O)N2CCOCC2)ccc1Cl)c1ccccc1	1%	x	3.2%	x
54	CCCCn1c2ccccc2c2cc(CC(N)=O)ccc21	4%	-12%	-0.9%	-2
55	COc1cc(/C=C2\C(=O)N(CCC#N)N=C2C)ccc1OCC(=O)Nc1ccccc1	0%	-54%	0.4%	0
56	C[C@H](CO)N1C[C@H](C)[C@@H](CN(C)C(=O)Nc2ccccc2)Oc2ccc(NC(=O)CCN3CCOCC3)cc2C1=O	2%	x	-0.3%	x
57	CC(=O)Nc1ccc(C(=O)Nc2cc(C)on2)cc1	12%	-21%	-1.9%	x
58	CC(=O)Nc1ccc2c(c1)nc(C)n2-c1ccccc1	-12%	-29%	1.1%	x
59	C=CCn1c(C)cc(C(=O)COC(=O)/C=C/c2cccc(OC)c2)c1C	-6%	-10%	-1.5%	-9
60	COC(=O)c1ccc(CNC(=O)c2ccc(OC)c(S(=O)(=O)NC3CCCC3)c2)cc1	1%	x	1.4%	x

Record cards, as listed above:
CN(C)C(=O)c1c([N+](=O)[O-])c(C(C)(C)C)nn1C as listed: Rango release inh: -17%; miR-21 reporter: -1%; Rango complex inh: 0.3%; GLA inh pH 4.5: 0
Cc1cccn2c(=O)c3cc(C(=O)NCC4CCCO4)c(=N)n(CCc4ccccc4)c3nc12 (centres undefined) as listed: Rango release inh: u; miR-21 reporter: 0%; Rango complex inh: u; GLA inh pH 4.5: x

Going on with the list.
nr	mol	Rango release inh	miR-21 reporter	Rango complex inh	GLA inh pH 4.5
61	COC(=O)c1cc(Br)c(=O)n(Cc2cccnc2)c1	-6%	0%	-3.5%	6
62	CCN(C[C@H]1N[C@@](CC)(C(=O)OC)[C@H]2C(=O)N(C)C(=O)[C@@H]12)C(=O)COC	-11%	x	-0.2%	x
63	CCOc1ccc(NS(=O)(=O)c2ccc(C(=O)N3CCCCC3)cc2)cc1	1%	15%	-9.3%	x
64	CC(C)n1ncc2c(C(=O)N3CCN(Cc4ccc(Br)s4)CC3)cc(C3CC3)nc21	-9%	x	0.3%	x
65	Cc1ccc(N(CC(=O)Nc2ccccc2C(=O)NCc2ccco2)S(=O)(=O)c2ccccc2)cc1C	3%	6%	5.0%	-4
66	COc1cc(NC(=O)CN2C(=O)C(c3ccccc3)=NC2(C)C)cc(OC)c1	13%	1%	2.0%	-1
67	Cc1ccc(S(=O)(=O)N2CCN(C(=O)CNC(=O)c3ccc(Br)o3)CC2)cc1	11%	x	-1.8%	x
68	CCOc1ccccc1N1CCN(C(=O)C(Sc2ccccc2)c2ccccc2)CC1 (centres undefined)	-10%	13%	3.6%	4
69	Cc1cccc(CSCCNC(=S)Nc2ccccc2)c1	14%	0%	1.2%	-15
70	Nc1cc(C(=O)N2CCN(c3ccc([N+](=O)[O-])cc3)CC2)ccc1N1CC2CC(C1)c1cccc(=O)n1C2 (centres undefined)	-2%	-6%	u	x
71	COc1cccc(C(=O)NCC(c2ccco2)N2CCc3ccccc3C2)c1 (centres undefined)	-9%	x	2.7%	x
72	COc1cc(C(=O)Oc2cccc(C(=S)N3CCOCC3)c2)cc(OC)c1OC	1%	1%	-3.8%	x
73	CCOC(=O)C1CSc2[nH]c(=O)sc2C1c1ccccc1 (centres undefined)	-4%	1%	-6.2%	-3
74	CN(C)c1nc(-c2ccccc2)ncc1S(=O)(=O)c1ccccc1	-10%	-19%	5.5%	-9
75	COc1ccc(C(=O)Nc2nc(CC(=O)NCCc3ccccc3OC)cs2)cc1	0%	x	0.7%	x
76	Nc1sccc1C(=O)c1ccc(Cl)cc1	20%	-23%	9.2%	-18
77	Clc1ccc(Cl)c(OCCN2CCCC2)c1	29%	-3%	-3.3%	x
78	Cc1ccc(NC(=O)c2ccc(CSc3nnnn3C)cc2)cc1	10%	-32%	-1.9%	-16
79	N#C/C(=C\c1cccs1)C(=O)Nc1ccccn1	u	-58%	u	3
80	COc1ccc(C2CC(=O)Nc3cc(C)c(C)cc32)c(OC)c1OC (centres undefined)	-12%	5%	-1.5%	3
81	N#C/C(=C\c1cccc(Oc2ccccc2)c1)C(=O)N1CCOCC1	3%	-7%	-0.5%	-2
82	CC(C)NC(=O)COC(=O)c1ccc(NS(=O)(=O)c2ccc3c(c2)OCCO3)cc1	1%	-1%	1.3%	1
83	Cc1cc(C)cc(NS(=O)(=O)c2coc(C(N)=O)c2)c1	-2%	-4%	-2.7%	x
84	O=C1NC(=S)N/C1=C/c1ccc(Oc2ccc(C(F)(F)F)cc2[N+](=O)[O-])c(Cl)c1	4%	-10%	0.8%	-6
85	CCc1ccc(OCC(=O)Nc2ccc(N3CCN(S(C)(=O)=O)CC3)cc2)cc1	-12%	0%	0.5%	4
